NPYLR7 ag: mosquito NPYLR7 agonism; HEK293T NPYLR7/Galpha15, GCaMP6s calcium fluorescence; activation, % at 10 µM; hit rate 0.15% among 270,000; AID 1259423; in the data active = activation above about 40%;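 note: 0% = vehicle and 100% = reference agonist at the receptor; some compounds past the cut are filed as inactive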
NPYLR7 ag max-min: further read-out of NPYLR7 ag, marked with its call; activation, %; measured here: Max-Min RFU normalised activation; some inactives read as strong as hits;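 span of the calcium signal over five minutes; 0% = vehicle and 100% = native peptide agonist; compound fluorescence can raise it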
An asterisk follows results filed as active. The list is partial (hit frequency here may not be typical).

SMILES	NPYLR7 ag	NPYLR7 ag max-min
CCOCCCn1c(SCc2cc(Cl)cc3c2OCOC3)nc2cc(S(=O)(=O)N3CCOCC3)ccc21	5	4
CNC(=O)Nc1ccc(NC(=O)CC/C=C/c2ccccc2)cc1	9	3
CC1(C)CC(NC(=O)c2cc(Cn3ccc4ccccc43)[nH]n2)CCO1 (centres undefined)	11	5
COc1ccccc1N1CCN(C(=O)c2ccccc2Cl)C(C)C1=O (centres undefined)	6	14
CC(C)(O/N=C(\C(=O)NC1C(=O)N2C(C(=O)O)=C(C[n+]3ccccc3)CSC12)c1csc(N)n1)C(=O)O (centres undefined)	-13	-22
CC1CCN(c2nc3c(c(=O)[nH]c(=O)n3C)n2CCCSc2nc3ccccc3s2)CC1	4	1
CC(C)CN(C#N)c1nc(N2CCOCC2)nc(N2CCOCC2)n1	0	0
CCCc1cc(=O)n2[nH]c(C)c(-c3cccc(Cl)c3)c2n1	-19	-25
O=S(=O)(c1ccc(Cl)cc1Cl)N1CCN(c2nccc(-c3ccc(-n4ccnc4)cc3)n2)CC1	6	2
COc1c(F)cc(-c2c(-c3ccccc3)ncn2CCNC(C)=O)cc1F	21	13
Cc1nn(C)c(C)c1NC(=O)CCc1ccc(Cl)cc1	0	1
CC(C)N1CCC(C)(C(=O)Nc2cccc3c2CCCC3)C1 (centres undefined)	2	3
CC(=O)N1CCN(c2ncccc2CNC(=O)c2ccc3ccccc3c2)CC1	18	10
Cn1c(SCC(=O)NCC2CCCO2)nc2c(-c3ccccc3)c[nH]c2c1=O (centres undefined)	-2	-5
CCOC(=O)c1ccc(NC(=O)CSc2ccc(-c3ccncc3)nn2)cc1	8	-2
CC(C)Cc1cc(-c2nn3c(-c4cccnc4)nnc3s2)n[nH]1	-10	-17
O=C(OCc1cnn(-c2ccccc2)c1)c1ccc(O)cc1O	5	5
Cc1nc(C)c(Cc2ccccc2F)c(N2CCN(C(=O)c3cccs3)CC2)n1	36	32
CC1CCc2ccccc2N1C(=O)CS(=O)Cc1cc(Cl)cc2c1OCOC2 (centres undefined)	0	-2
COc1ccccc1CNC(=O)CCCc1nnc2c(=O)n(-c3ccc(Cl)cc3)ccn12	-2	-7
Cn1nnc2cc(C(=O)N3CCCC4(C=Cc5ccccc5O4)CC3)ccc21 (centres undefined)	-7	-9
O=C(NC(C(=O)N1CCOCC1)C1CCN(C(=O)c2ccc(Cl)cc2)CC1)c1cccs1 (centres undefined)	0	4
O=S(=O)(c1cc(F)ccc1F)N1CCN(Cc2nnnn2C2CC2)CC1	11	3
CC(C)CC(=O)Nn1c(O)c(C2=c3ccccc3=NC2=O)sc1=S	-5	-8
NC(=O)C1CCN(C(=O)c2cccc(CSc3nc(Cl)cc(N4CCCCC4)n3)c2)CC1	9	13
O=C(NCC(c1ccccc1)N1CCCC1)c1cccc(S(=O)(=O)N2CCCCC2)c1 (centres undefined)	1	9
Cc1cnn(CC(=O)N2CCC(=O)N(Cc3ccc(F)cc3)C(C(C)C)C2)c1 (centres undefined)	1	-1
N#Cc1nc2ccccc2cc1Br	0	-4
O=C(Nc1ccccc1SCc1ccccc1F)c1cccc(=O)[nH]1	10	6
COc1ccc(/C=N\NC2=NS(=O)(=O)c3ccccc32)cc1	3	3
CCC(=O)N(Cc1cc(NC(=O)C2CCCC2)ccc1N(C)C)C1CCCCC1	28	24
CN(C)S(=O)(=O)N1CCCCC1c1ccc(F)cc1 (centres undefined)	0	-2
CC1CCC(C#N)(N(C)C(=O)CN(C)CC(=O)Nc2ccc(Cl)cc2)CC1 (centres undefined)	5	2
Cc1cc(N2CCCN(Cc3cn(C)nc3-c3ccccc3)CC2)ccn1	-17	-21
FC(F)CN1CCC(NC/C=C/c2ccccc2)CC1	2	1
Cc1ccc(C(=O)N2C(C(=O)N3CCCC3)COC23CCN(C(=O)c2ccccc2Cl)CC3)cc1 (centres undefined)	-1	5
CCCc1cc(C(=O)N2CCC(CCC(=O)NC3CC3)CC2)no1	20	7
COc1ccccc1NC(=O)c1c(N=Cc2cc(Cl)cc(Cl)c2OC)cnn1C	0	-5
Cn1ccnc1CNc1ccc(I)cc1	2	3
Cc1occc1C(=O)NCC(=O)Nc1cc(Cl)ccc1O	3	2
CCc1ccc(S(=O)(=O)NCCOc2ccc(-c3ccco3)nn2)s1	-5	-5
Cc1cnn(C(C)C2CC2)c1NC(=O)c1ccc(Cn2cnnn2)cc1 (centres undefined)	3	8
COCCn1c(N2CCN(Cc3cc(C)ccc3C)CC2)nc2c1c(=O)[nH]c(=O)n2C	10	4
COc1ccccc1C(C)NC(=O)Cn1cnc2cc(Br)ccc2c1=O (centres undefined)	-1	1
CC1NCCc2sccc21 (centres undefined)	6	6
CCOc1cc2c(cc1NC(=O)c1ccc(SC)cc1OC)OC(C)C2 (centres undefined)	-1	26
CC(C)(C)c1ccc(NC(=O)N2CCn3cccc3C2c2cccnc2)cc1 (centres undefined)	11	5
CC(c1ccncn1)N(C)Cc1cn(Cc2ccccc2)nc1-c1ccc2c(c1)OCO2 (centres undefined)	1	-2
CN(C)c1ccc(S(N)(=O)=O)cn1	-1	3
Cc1cccc(CNC(=O)c2sc(=O)[nH]c2C)c1	0	-2

Next part:
SMILES	NPYLR7 ag	NPYLR7 ag max-min
CCOC(=O)c1nn(-c2ccc(F)cc2)c(=O)cc1NCCCN1CCOCC1	7	1
Cc1cc(C)cc(NC2=NC3CS(=O)(=O)CC3S2)c1 (centres undefined)	0	0
O=P1(Nc2ccc(Br)cc2)C=C(c2ccccc2)OC(c2ccccc2)=C1	1	1
CCc1nc(SCC(=O)NC(C)CN2CCc3ccccc3C2)n[nH]1 (centres undefined)	7	3
Nc1ccc2c(c1)CN(S(=O)(=O)c1ccccc1)CC2	-3	2
C=CCCC(=O)NCc1ccc(-c2ncc(-c3cccc(OC)c3)[nH]2)cc1	-7	-9
CN(c1cc(C(=O)NCc2cccc(Cl)c2)c2ccccc2n1)C1CCCCC1	13	11
O=C(Cc1c(F)cccc1Cl)Nc1c(Cl)ncnc1-n1cccn1	-4	-4
S=c1nn[nH]c2c1sc1nc(N3CCOCC3)c3c(c12)CCCC3	12	5
COc1ccc(-c2nc3ccccc3o2)cc1NC(=O)c1ccc(C(C)C)cc1	-4	-10
Cc1c(C(=O)N2CCCC(N3CCc4ccccc4C3)C2)cnc2ccnn12 (centres undefined)	18	15
Cc1cc(C)n(CCCn2cc(-c3cccc4ccccc34)nn2)n1	-1	-8
CCCCC(=O)Nc1oc2c(C)cccc2c(=O)c1-c1cc(OC)c(OC)c(OC)c1	6	0
COCCC1CN(C(=O)c2ccc(NC(C)=O)cc2C)CCO1 (centres undefined)	5	-3
CC(=O)NC1CCN(C(=O)c2cccc(CC3CCNCC3)c2)CC1	9	7
N#Cc1nc(-c2ccc(S(=O)(=O)N3CCCC3)cc2)oc1NCc1cccnc1	2	8
C=Cc1cc(OC)c(OCc2ccn(C(C)C)n2)c(OC)c1	1	-3
COc1ccc(Br)c(C(=O)NNC(=O)c2ccc(Br)cc2)c1	5	7
Cc1c(C(C)NC(=O)C2CCOCC2)cnn1-c1ccccn1 (centres undefined)	20	17
O=c1cnn([C@@H]2O[C@H](CO)[C@@H](O)[C@H]2O)c(=O)[nH]1	-4	-8

Fetched one by one from the list above:
SMILES	NPYLR7 ag	NPYLR7 ag max-min
COc1ccc(/C=N\NC2=NS(=O)(=O)c3ccccc32)cc1	3	3
Cc1cccc(CNC(=O)c2sc(=O)[nH]c2C)c1	0	-2
CC(=O)NC1CCN(C(=O)c2cccc(CC3CCNCC3)c2)CC1	9	7
O=C(Cc1c(F)cccc1Cl)Nc1c(Cl)ncnc1-n1cccn1	-4	-4
O=S(=O)(c1cc(F)ccc1F)N1CCN(Cc2nnnn2C2CC2)CC1	11	3

(continued)
SMILES	NPYLR7 ag	NPYLR7 ag max-min
CCc1nc2c(N3C[C@H]4CC=CC[C@H]4C3)ncnc2o1	3	17
COCCCNC(=O)c1c(N)n(/N=C\c2c[nH]c3ccccc23)c2nc3ccccc3nc12	3	-5
CC1CCCN(c2cc(C(=O)N3CCC(Cc4ccccc4)CC3)c3ccccc3n2)C1 (centres undefined)	-2	-2
CC(C)Cc1nc2cc(NS(=O)(=O)N(C)C)cc(C(=O)NC3CCc4ccccc43)c2n1C (centres undefined)	0	-7
COc1cc(Cl)ccc1C(=O)N1CCCC(N2CCC(CO)CC2)C1 (centres undefined)	-1	-3
Cc1c(C(=O)NN=Cc2ccc(-c3cccc(C(=O)O)c3)o2)sc(N)c1C#N	2	-4
CC(C)CN(Cc1ccsc1)C(=O)Cn1cnc2ccsc2c1=O	-7	-10
COc1ccc(NC(=O)N(C)CC(O)COCCOC(C)C)cn1 (centres undefined)	4	1
CCOc1ccc(S(=O)(=O)Nc2cc(OC)c(OC)cc2C(=O)OC)cc1OCC	-5	-1
COc1ccc(CN2CCC(CNC(C)=O)C2)c(OC)c1C (centres undefined)	2	-3
C=CCn1c(SCc2ccc(F)cc2)nc2c1c(=O)[nH]c(=O)n2C	-1	-5
CCCCc1ccc(NC(=O)c2cc3ccccc3oc2=O)cc1	-1	6
O[C@H]1CCCC[C@@H]1N1CCN(C2CCC3(CCNCC3)CC2)CC1	6	4
CCN(CC(=O)NCc1ccc(Cl)cc1)C(=O)c1cccc(CS(C)(=O)=O)c1	5	4
COc1ccc(C(=O)O)cc1NS(=O)(=O)C(F)(F)F	5	4
CC(C)(C)OC(=O)N1CCC(Oc2ccc(NS(=O)(=O)c3ccc4c(c3)CN(C(=O)C(F)(F)F)CC4)cc2)C1 (centres undefined)	2	-8
N#Cc1c(NC(=O)Cn2cnc([N+](=O)[O-])n2)sc2c1CCCC2	-6	-10
O=C1OC(/C=C/c2ccccc2)=NC/1=C\c1coc2ccc(Cl)cc2c1=O	-1	-5
Cc1ccc(/C=C/c2nc3s/c(=C\c4ccc([N+](=O)[O-])cc4)c(=O)n3n2)cc1	9	13
C=CCN1C(=O)NC2(O)C(=O)c3ccccc3C12O (centres undefined)	1	0
CC(=O)Nc1cnc(-c2cc(C)c(O)c(C)c2)cn1	4	1
COCCCN(Cc1c(C)nn(-c2ccccc2)c1N1CCN(C)CC1)C(=O)C1CCCCC1	0	6
Cc1ccc(Cc2nc(N3CCN(C(=O)C4CCCC4)CC3)c3c(-c4cccnc4)noc3n2)cc1	18	5

Molecules listed so far that have an NH in an aromatic ring (14):
SMILES	NPYLR7 ag	NPYLR7 ag max-min
CC1(C)CC(NC(=O)c2cc(Cn3ccc4ccccc43)[nH]n2)CCO1 (centres undefined)	11	5
CC1CCN(c2nc3c(c(=O)[nH]c(=O)n3C)n2CCCSc2nc3ccccc3s2)CC1	4	1
CCCc1cc(=O)n2[nH]c(C)c(-c3cccc(Cl)c3)c2n1	-19	-25
Cn1c(SCC(=O)NCC2CCCO2)nc2c(-c3ccccc3)c[nH]c2c1=O (centres undefined)	-2	-5
CC(C)Cc1cc(-c2nn3c(-c4cccnc4)nnc3s2)n[nH]1	-10	-17
O=C(Nc1ccccc1SCc1ccccc1F)c1cccc(=O)[nH]1	10	6
COCCn1c(N2CCN(Cc3cc(C)ccc3C)CC2)nc2c1c(=O)[nH]c(=O)n2C	10	4
Cc1cccc(CNC(=O)c2sc(=O)[nH]c2C)c1	0	-2
CCc1nc(SCC(=O)NC(C)CN2CCc3ccccc3C2)n[nH]1 (centres undefined)	7	3
C=CCCC(=O)NCc1ccc(-c2ncc(-c3cccc(OC)c3)[nH]2)cc1	-7	-9
S=c1nn[nH]c2c1sc1nc(N3CCOCC3)c3c(c12)CCCC3	12	5
O=c1cnn([C@@H]2O[C@H](CO)[C@@H](O)[C@H]2O)c(=O)[nH]1	-4	-8
COCCCNC(=O)c1c(N)n(/N=C\c2c[nH]c3ccccc23)c2nc3ccccc3nc12	3	-5
C=CCn1c(SCc2ccc(F)cc2)nc2c1c(=O)[nH]c(=O)n2C	-1	-5

Screening data as filed in PubChem BioAssay.
